# Source: PubChem (National Center for Advancing Translational Sciences (NCATS))
# LASV entry inh: Lassa virus entry inhibition; AID 540256; 1.2% of 300,000 active; Potency, µM (series often up to 37.9 µM), for the others: top-dose activity change, negative = inhibition, most hits filed as inhibitors; Lassa virus pseudotype entry inhibition, cell reporter; control for the full effect not named in the record; active means well fitted inhibition curve with a large enough effect; inconclusive means small, poorly fitted or top-dose-only effect, or effect the other way; inactive means flat fitted curve, though single readings scatter; tested in HEK293 cells; further: on the % scale 0 is the no-effect control and ±100 the full control effect; nearly all actives have a fitted effect of over 50% in size; luciferase read-out
# Cruzain inh noDet: cruzain (T. cruzi) inhibition without detergent; P25779; purified cruzain, Z-FR-AMC fluorescence, no detergent; Potency, µM, without a hit: max response, negative = inhibition, hits mostly inhibitors; 2.3% of 200,000 active; active means well fitted curve in the direction sought with a large enough effect; inconclusive means small, poorly fitted or top-dose-only effect, or another doubt; inactive means no such curve, though single readings can be large; an effect the other way counts as inactive or inconclusive;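 further: plate controls were enzyme without inhibitor for no effect and buffer without enzyme for full effect; nearly all actives have a fitted effect of over 40% in size; top concentration of the series not given in the record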
# Target sequence (P25779 123-467 limits assumed): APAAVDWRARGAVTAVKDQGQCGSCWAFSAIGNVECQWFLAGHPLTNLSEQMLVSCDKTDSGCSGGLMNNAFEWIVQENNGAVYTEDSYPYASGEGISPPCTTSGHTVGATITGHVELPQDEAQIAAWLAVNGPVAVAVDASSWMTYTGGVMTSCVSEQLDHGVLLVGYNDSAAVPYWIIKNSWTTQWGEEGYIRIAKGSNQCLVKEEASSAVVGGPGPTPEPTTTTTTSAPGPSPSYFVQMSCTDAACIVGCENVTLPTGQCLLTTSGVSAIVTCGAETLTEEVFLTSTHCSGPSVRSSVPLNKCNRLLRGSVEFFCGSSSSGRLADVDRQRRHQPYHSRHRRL
#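 Detergent-free condition (0.00005% Triton X-100) in acetate buffer pH 5.5 with DTT. 1.5 nM enzyme and compound were pre-mixed 15 min, then 2 uM Z-FR-AMC substrate added; reaction progress from fluorescence change between first and third reads (60 s).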
# NS1 inh: blocks influenza NS1 protein function. S. cerevisiae slowed by influenza A NS1, growth recovery by OD600. 0.4% of 270,000 active. AID 2326. Potency, µM (titrated, usually from 46.1 µM), for the others: at the top dose activity, positive = more growth; further: actives are rising curves; nearly all actives have a fitted effect of over 50% in size
#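 Recovery from NS1-induced slow growth read by OD600 in budding yeast switched to galactose assay medium (pH 6.0, -URA) at 1:100 dilution. Compound 23 nl per well; the matching strain lacking NS1 serves as control.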
# SARS PLP yeast: SARS-CoV PLP inhibition in yeast | S. cerevisiae expressing SARS-CoV PLpro, growth rescue; control for the full effect not named in the record | 0.19% of 330,000 active | Potency, µM (top dose mostly 32.9 µM), for inactives: top-dose activity, positive = growth rescue; further: 0% is about no effect; nearly all actives have a fitted effect of over 55% in size; growth read by luminescence after 48 h
# Cruzain Triton: inhibitors of Trypanosoma cruzi cruzain with detergent; purified cruzain, Z-FR-AMC fluorescence, 0.01% Triton; P25779; 0.43% of 200,000 active; AID 1478; Potency, µM, for the others: max response, negative = inhibition, hits mostly inhibitors; active means well fitted curve in the direction sought with a large enough effect; inconclusive means small, poorly fitted or top-dose-only effect, or another doubt; inactive means no such curve, though single readings can be large; an effect the other way counts as inactive or inconclusive;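 further: plate controls were neutral wells for no effect and buffer without enzyme for full effect; nearly all actives have a fitted effect of over 40% in size; top concentration of the series not given in the record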
#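 Sodium acetate buffer (100 mM, pH 5.5) containing 5 mM DTT and 0.01% Triton X-100 hosted 1.5 nM cruzain and test compound for 15 min at room temperature. Cleavage of 2 uM Z-FR-AMC was then tracked by fluorescence.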
# StopGo reporter: FMDV 2A StopGo reporter, luciferase signal. human cells with a luciferase reporter of 2A StopGo recoding; control for the full effect not named in the record. Potency, µM (titrated, usually from 57.9 µM), for the others: at the top dose signal change, negative = less light. 1.2% of 410,000 active; active = well fitted falling curve with a large enough effect; inconclusive = small, poorly fitted or top-dose-only effect; inactive = no such curve, though single readings can be large or run the other way; tested in HEK293T cells; further: on the % scale 0 is the no-effect control and ±100 the full control effect; nearly all actives have a fitted effect of over 45% in size; luciferase light after 4 h
# Marburg entry inh: inhibitors of Marburg virus binding or cell entry; Marburg virus pseudotyped entry inhibition, cell reporter; control for the full effect not named in the record; about a third of the inactives were read at about 46 µM; Potency, µM (doses to about 37.8 µM), without a hit: at the top dose activity change, negative = inhibition, actives largely listed as inhibitors; 1.8% of 300,000 active; AID 540276; active = well fitted inhibition curve with a large enough effect; inconclusive = small, poorly fitted or top-dose-only effect, or effect the other way; inactive = flat fitted curve, though single readings scatter; tested in HEK293 cells; about a fifth of its hits are not listed in these tables; further: on the % scale 0 is the no-effect control and ±100 the full control effect; luciferase read-out
# RE007 growth inh: less growth of the S. pombe RE007 Vpr strain; S. pombe RE007 Vpr strain, BacTiter-Glo ATP luminescence, 24 h; control for the full effect not named in the record; Potency, µM (titrated, usually from 92.2 µM), without a hit: top-dose activity change, negative = less growth; 0.21% of 360,000 active; AID 651644; active = well fitted falling curve with a large enough effect; inconclusive = small, poorly fitted or top-dose-only effect; inactive = no such curve, though single readings can be large or run the other way;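 further: on the % scale 0 is the no-effect control and ±100 the full control effect; nearly all actives have a fitted effect of over 50% in size; the assay follows cell death caused by Vpr and the record does not say whether a fall means rescue or toxicity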
#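 Fission yeast RE007 carrying one integrated HIV-1 vpr copy, seeded at OD 0.01 in PMG+AL medium with 23 nL pinned compound. Grown 24 h at 30 degrees; viability read by BacTiter-Glo luminescence after 5 min.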
# * marks the source's active call; other numbers are inactive results; ? = inconclusive; . = no result given; & = joins results of further samples; [ ] = another dose, or the depositor's remark. Unless noted, the call rests on the fitted dose curve; in most records, active means well fitted rising curve with a large enough effect; inconclusive means small, poorly fitted or top-dose-only effect; inactive means no such curve, though single readings can be large or run the other way. Potency means the concentration at half of the fitted maximal effect.
# Screens in order: LASV entry inh | Cruzain inh noDet | NS1 inh | SARS PLP yeast | Cruzain Triton | StopGo reporter | Marburg entry inh | RE007 growth inh
- CC1(C)Cc2c(C#N)c(N3CCNCC3)nc(-c3ccco3)c2CS1
→ -4% | . | 2% | 0% | . | -20% | 0%[46.1 µM] | -2%
- Cc1c(C(=O)Nc2c(N)nc(SCC(=O)NCC3CCCO3)[nH]c2=O)cccc1[N+](=O)[O-] (stereo not drawn)
→ 8% | . | 17% | 5% | . | -2% | -2% | 6%
- CCNC(=S)N1CCn2cccc2C1c1ccc(F)cc1 (stereo not drawn)
→ ? | . | . | -1% | . | 9% | ? | -2%
- Cc1nn(C)cc1CN1CCC(n2nccc2NC(=O)CCCc2ccccc2)CC1
→ 11%[46.1 µM] | . | -10% | -7% | . | -5% | -7%[46.1 µM] | 3%
- CC1=[N+](C)N(c2ccccc2)C(=O)C1N=Cc1ccccc1Cl (stereo not drawn)
→ 0% | 8% | 5% | -8% | 2.3% | -26% | 2% | 2%
- FC(F)C(F)(F)c1cc(-c2ccc(Cl)cc2)n[nH]1
→ 3% | . | -68% | -4% | . | -18% | -11%[14.2 µM] | ?
- CCN(CCCNC(=O)c1cc2c(=O)n(C)c3ccccc3c2s1)c1ccccc1
→ 5%[46.1 µM] | 0% | . | . | -0.2% | -13% | 7%[46.1 µM] | .
- CCOC(=O)c1cccc(NC(=O)CCc2nc(-c3ccc(C)cc3)no2)c1
→ ? | 9% | -10% | -6% | -7.5% | ? | ? | -12%
- Cc1sc2nc(CN3CCOCC3)nc(N3CCN(S(=O)(=O)c4ccccc4)CC3)c2c1C
→ -24% | . | . | -7% | . | -14% | ? | -9%
- CCCN(CCC)CCNC(=O)Cn1cnc2sc(C)c(S(=O)(=O)N3CCC(C)CC3)c2c1=O
→ ? | -2% | . | . | -0.3% | 3% | 25%[46.1 µM] | .
- O=C(CSc1nc(-c2ccccc2)nc2c1Cc1ccccc1O2)Nc1ccc(C(=O)O)cc1
→ -31% | . | . | 1% | . | 13% | 4%[14.2 µM] | 5%
- Cc1nc2ncnn2c(C)c1CCC(=O)N1CCN(c2cccc(Cl)c2)CC1
→ 34%[46.1 µM] | 0% | . | . | 0.0% | -17% | ? | .
- NS(=O)(=O)c1cnccc1Nc1cccc(Br)c1
→ -15% | . | . | . | . | 5% | -7% | -8%
- C/C(=N\NC(=O)Cc1c[nH]c2ccccc12)c1ccc2ccccc2c1
→ 4µM* | . | . | -2% | . | 12% | ? | -1%
- O=C(O)Cc1sc(=O)[nH]c1O
→ -20%[46.1 µM] | . | . | . | . | -15% | 4%[46.1 µM] | 10%
- CC(=O)c1cccc(NC(=O)N2C3CCCC2CC(NC(=O)C2CC2)C3)c1 (stereo not drawn)
→ . | . | -1% | -5% | . | -5% | ? | -10%
- COc1ccc(OCC(O)CN2CC(C)OC(C)C2)cc1 (stereo not drawn)
→ . | . | ? | 5% | . | -1% | . | -15%
- CN=c1sc(C(=O)Nc2cccc(Cl)c2)cc(=O)n1C
→ ? | 7% | -13% | 1% | -0.4% | -22% | ? | 0%
- COc1cc2ccccc2cc1C(=O)Nc1ccc(S(=O)(=O)Nc2cc(C)on2)cc1
→ 22% | -26% | -30% | 3% | -15% | -4% | 8% | -4%
- CC1(C(=O)OCC(=O)Nc2nc(-c3ccc(F)c(F)c3)cs2)CC1(Cl)Cl (stereo not drawn)
→ ? | . | -5% | 0% | . | ? | ? | -2%
- O=C(Nc1cccc(C(=O)N2CCCCCC2)c1)c1ccco1
→ 8% | 2% | -2% | 1% | 2.2% | 15% | 75% | 18%
- Cc1ccc(C2C=C(c3ccccc3)Nc3nc(NS(=O)(=O)c4ccc(C)cc4)nn32)cc1 (stereo not drawn)
→ . | -11% | . | . | 0.2% | -5% | . | .
- CC(C)NC(=O)NC(=O)COC(=O)c1ccccc1F
→ 25% | 1% | 12% | 12% | -0.4% | -11% | 11% | 1%
- Cc1nn(Cc2ccccc2Cl)c(C)c1C(=O)N1CCN(c2ccccc2)CC1
→ -1% | ? | -4% | -4% | 2.6% | -19% | 1% | 21%
- O=C(COC(=O)c1cc(Br)ccc1O)NC12CC3CC(CC(C3)C1)C2
→ 11%[46.1 µM] | . | . | 2% | . | 22% | 5%[46.1 µM] | 4%
- CC1(C)CC(=O)C2=C(C1)N(Cc1ccccc1)C(=O)C2(NC(=O)C(C)(C)C)C(F)(F)F (stereo not drawn)
→ 16% | ? | 3% | 0% | 3.0% | 20% | 1% | 2%
- O=C(Nc1ccc(Cl)c(Cl)c1)N1N=CCC1c1ccccc1 (stereo not drawn)
→ ? | . | 6% | -4% | . | -29% | ? | 2%
- Cn1cc(S(=O)(=O)NC2CCCCC2)c(=O)n(C)c1=O
→ 1% | . | . | -4% | . | -2% | 23%[46.1 µM] | -15%
- Fc1ccccc1CSc1nc2ccccc2[nH]1
→ ? | 3% | -79% | -14% | -8.9% | 0% | ? | ?
- CC(=O)Nc1ccc(C(=O)Nc2ccc3c(c2)OCCO3)cc1
→ . | . | 3% | 0% | . | 22% | . | 13%
- c1ccc2ncc(-n3cnnn3)cc2c1
→ -15% | 13% | 6% | -5% | 0.0% | -11% | 1% | 9%
- O=c1c2ccccc2nc(-c2ccco2)n1CCc1ccc(O)cc1
→ . | . | -9% | 3% | . | ? | . | 13%
- C/C=C/c1ccc(OCCCCN(C)Cc2ccccc2)c(OC)c1
→ . | . | -11% | -3% | . | -24% | . | -4%
- Cc1cc(C)nc(SCC(=O)NCc2ccco2)n1
→ 20% | -8% | 16% | 2% | -2.8% | -15% | 7% | -3%
- CCOC(=O)N/N=C/C=C/c1ccccc1[N+](=O)[O-]
→ -8% | . | 2% | 1% | . | 14% | 7%[46.1 µM] | 12%
- CCN(CC)c1ccc(C(=O)OCC(=O)Nc2ccccc2-c2ccccc2)cc1
→ ? | -15% | ? | 4% | -6.9% | 18µM* | ? | 0%
- COc1ccc2c(c1)c(CC(=O)N1CCOCC1)c(C)n2C(=O)c1ccc(Cl)cc1
→ . | ? | -37% | . | -10%&-1.6%&-3.2% | -11%[6.7 µM] | ? | .
- CC(C)(C)CC(=O)NCc1cccs1
→ -4%[46.1 µM] | . | 2% | -1% | . | -22% | 3%[46.1 µM] | 14%
- CCN(CC)C(=O)[C@H]1CC(CC(=O)NCCN2CCOCC2)C(=O)N2CCc3c([nH]c4ccc(OC)cc34)[C@]12C (stereo partly drawn)
→ . | . | . | -3% | . | -18% | 0% | 2%
- Cc1ccc(N(CC(=O)Nc2ccccc2-c2ccccc2)S(=O)(=O)c2ccccc2)c(C)c1
→ ? | ? | ? | -9% | -5.3% | -18% | ? | 4%
- COc1ccc(CNC(=O)COC(=O)[C@@H]2CCCN2C(=O)c2cccs2)cc1
→ -21%[46.1 µM] | . | . | -15% | . | 1% | -2%[46.1 µM] | 16%
- Cc1ccc2c(c1)NC(c1cccs1)C1=C(CC(C)(C)CC1=O)N2 (stereo not drawn)
→ -9% | . | . | 1% | . | -5% | 2%[46.1 µM] | -6%
- CCS(=O)(=O)N1CCN(c2ccc(C(=O)NC34CC5CC(CC(C5)C3)C4)cc2[N+](=O)[O-])CC1
→ 2% | ? | 6% | 6% | -5.8% | -21% | -4% | -15%
- COc1ccc(OCC(=O)N2CCN(Cc3cc(=O)n4nc(-c5ccc(OC)cc5)sc4n3)CC2)cc1
→ ? | 3% | . | . | 2.7% | ? | . | .
- Cc1ccc(N2C(=O)c3oc4cc(C)c(C)cc4c(=O)c3C2c2cccc(O)c2)nc1 (stereo not drawn)
→ 8%[46.1 µM] | 2% | . | . | -1.7% | -3% | -5%[46.1 µM] | .

# Whole records as entered above.
# c1ccc2ncc(-n3cnnn3)cc2c1 is entered as LASV entry inh: -15%; Cruzain inh noDet: 13%; NS1 inh: 6%; SARS PLP yeast: -5%; Cruzain Triton: 0.0%; StopGo reporter: -11%; Marburg entry inh: 1%; RE007 growth inh: 9%
# COc1ccc2c(c1)c(CC(=O)N1CCOCC1)c(C)n2C(=O)c1ccc(Cl)cc1 is entered as LASV entry inh: .; Cruzain inh noDet: ?; NS1 inh: -37%; SARS PLP yeast: .; Cruzain Triton: -10%&-1.6%&-3.2%; StopGo reporter: -11%[6.7 µM]; Marburg entry inh: ?; RE007 growth inh: .

# (cont.)
# Screens in order: LASV entry inh | Cruzain inh noDet | NS1 inh | SARS PLP yeast | Cruzain Triton | StopGo reporter | Marburg entry inh | RE007 growth inh
- COc1cccc2c1CCc1c-2nc2ccccc2c1C(=O)O
→ ? | . | 4% | 0% | . | ? | ? | -14%
- Cc1c(C(=O)O)cccc1-n1c(C)cc(/C=C2\C(=O)NC(=O)N(c3ccc4c(c3)OCO4)C2=O)c1C
→ -3% | . | . | 0% | . | -10% | 25%[46.1 µM] | 7%
- CS(=O)(=O)Nc1ccccc1C(=O)N1CCN(c2ccccc2)CC1
→ . | -2% | 6% | 2% | 4.9% | . | 3% | .
- O=C(CSc1nnc(Nc2ccccc2)s1)NCCN1C(=O)CSC1=O
→ 15% | -16% | 15% | 10% | -3.2% | 7% | 11% | -1%
- Cn1cccc1CC(=O)N/N=C/c1ccc(Cl)cc1
→ -1% | . | 2% | -3% | . | 25% | 8%[46.1 µM] | -19%
- C#CCOCCOCCOCCNc1nc(N2CCN(C(=O)[C@H]([C@@H](C)CC)n3cc([C@@H](N)CC(C)C)nn3)CC2)nc(N2CCN(C(=O)[C@H](Cc3ccc(O)cc3)n3cc([C@@H](N)CC(C)C)nn3)CC2)n1
→ . | . | 5% | 0% | . | -5% | . | 10%
- Cc1ccnc(SCC(=O)N2CCN(C(c3ccccc3)c3ccccc3)CC2)n1
→ -28% | -7% | -14% | 2% | -7.7% | ? | -8% | 1%
